DUX4 inh = inhibitors of DUX4-driven ZSCAN4 reporter expression, primary screen, 293T cells, Gaussia and Italica luciferase. 293T-iDUX4 ZSCAN4-Gaussia luciferase reporter, 24 h; stronger effect = lower value. activity change, negative = inhibition, % (no concentration beside the values). 0.8% of 37,000 active. AID 1224904, 2016;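 active = -10% or lower and over 25 points stronger than a control reporter; inconclusive = -10% or lower with a smaller gap; inactive = above -10%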;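 also: 0% = median of neutral control wells and -100% = median of positive control wells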
DUX4 inh difference = also measured in DUX4 inh; calls as there; Gaussia minus Italica difference, %; measured here: selective DUX4 reporter inhibition;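 worked out from the two reporters; negative = selective loss of the DUX4 reporter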
DUX4 inh control = also measured in DUX4 inh; calls as there; activity change, negative = inhibition, %; measured here: Italica tet-on control reporter;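 0 = neutral control and -100 = positive control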
The depositor's hits bear a star; u = inconclusive; x = not tested or not shown. These rows are one share of the data. The share of hits here may be higher or lower than overall.

SMILES | DUX4 inh | DUX4 inh difference | DUX4 inh control
CCCNC(=O)N1C[C@H](C)[C@H](OC)CN(C)C(=O)c2cc(NC(C)=O)ccc2OC[C@@H]1C | 0 | -1 | 1.1
CC(C)NC(=O)N1CC(=O)N2[C@H](CO)[C@H](c3ccc(/C=C/c4ccccc4)cc3)[C@@H]2C1 | 4 | -2 | 5.8
CO[C@@H]1CN(C)C(=O)c2cc(NC(=O)c3ccc(F)cc3)ccc2OC[C@H](C)N(C(=O)CC2CC2)C[C@H]1C | 5 | 2 | 2.6
CCC(=O)N1C[C@@H](O)COC[C@@H]2O[C@H](CC(=O)NCc3cc(F)cc(F)c3)CC[C@H]21 | -1 | 3 | -3.7
CCNC(=O)C[C@H]1CC[C@@H]2[C@H](COC[C@H](O)CN2C(=O)Nc2ccc(Cl)c(Cl)c2)O1 | 5 | 6 | -0.4
O=C(Nc1ccc(Cl)c(Cl)c1)N[C@@H]1CC[C@@H](CCNC(=O)c2ccc(F)cc2)O[C@H]1CO | -3 | 2 | -5.4
COc1ccc(-c2ccccc2[C@H]2[C@@H](CO)N(C(=O)c3cccnc3)[C@H]2C#N)cc1 | -4 | -9 | 4.7
Cc1noc(C)c1NC(=O)N(C)C[C@@H]1Oc2c(NC(=O)c3cnccn3)cccc2C(=O)N([C@H](C)CO)C[C@@H]1C | 3 | 2 | 0.5
CCNC(=O)C[C@H]1CC[C@H]2[C@@H](COC[C@@H](O)CN2C(=O)Nc2ccc(C(F)(F)F)cc2)O1 | 6 | -2 | 7.4
C[C@H]1CCCCO[C@@H](CN(C)Cc2ccc(C(=O)Nc3ccccc3N)cc2)[C@@H](C)CN([C@@H](C)CO)C(=O)c2cc(N(C)C)ccc2O1 | 1 | -2 | 2.4
O=C(C1CCC1)N1CC2(C1)[C@@H](c1ccccc1)[C@@H](CO)N2Cc1ccc(Cl)cc1 | -8 | -4 | -4.3
CCCNC(=O)Nc1ccc2c(c1)C(=O)N(C)[C@@H]1CC[C@H](CC(=O)NCc3ccccc3)O[C@@H]1CO2 | -3 | -6 | 2.7
CC(C)OC(=O)N(C)C[C@@H]1OCc2cnnn2CCCC(=O)N([C@H](C)CO)C[C@H]1C | 1 | -1 | 1.7
CCCNC(=O)Nc1ccc2c(c1)C(=O)N(C)C[C@H](OC)[C@@H](C)CN(C)[C@@H](C)CO2 | 8 | 5 | 3.4
N#Cc1cccc(-c2ccc(C3[C@@H]4CN(Cc5ccccc5F)C[C@H]3N4)cc2)c1 (stereo partly specified) | u | x | x
C[C@@H]1CN([C@H](C)CO)C(=O)c2cc(C#CCC3CCCC3)cnc2O[C@H]1CN(C)S(=O)(=O)c1cccs1 | 0 | -2 | 1.4
COc1ccc2c3c(n(C)c2c1)[C@@H](CO)N(Cc1ccc2c(c1)OCO2)CC31CN(C(C)=O)C1 | 7 | 3 | 3.6
COc1ccc2c3c([nH]c2c1)[C@H](CO)N(S(=O)(=O)c1ccccc1)CC31CCN(C)CC1 | -9 | 8 | -17
O=C(CC1CC1)N1CC(=O)N2[C@H](CO)[C@@H](c3ccc(C#Cc4cccc(F)c4)cc3)[C@@H]2C1 | u | x | x
C[C@H]1CCCCO[C@H](CN(C)Cc2ccc(C(F)(F)F)cc2)[C@@H](C)CN([C@@H](C)CO)C(=O)c2cc(NC(=O)CCCN(C)C)ccc2O1 | -1 | -3 | 2.4
CO[C@@H](CN(C)C(=O)c1ccc2c(c1)OCO2)[C@H](C)CN([C@@H](C)CO)S(=O)(=O)c1ccc(Cl)cc1 | 2 | 2 | 0.1
COc1ccccc1-c1ccc([C@@H]2[C@@H](CO)N(C(=O)CN(C)C)[C@H]2C#N)cc1 | -3 | -2 | -1.2
O=C(C1CCCC1)N1CC2(C1)[C@H](c1ccccc1)[C@H](CO)N2C(=O)NC1CCCC1 | -1 | -2 | 0.6
CCNC(=O)[C@@H]1[C@@H](CO)[C@@H]2Cn3c(ccc(-c4ccccc4F)c3=O)[C@@H]2N1CC | -3 | 3 | -5.4
C[C@H](CO)N1C[C@H](C)[C@H](CN(C)C(=O)NC2CCCCC2)Oc2ccc(NS(=O)(=O)c3cn(C)cn3)cc2CC1=O | -2 | -2 | -0.5

10 neighbouring entries out of the list so far, for reference:
SMILES | DUX4 inh | DUX4 inh difference | DUX4 inh control
CCCNC(=O)N1C[C@H](C)[C@H](OC)CN(C)C(=O)c2cc(NC(C)=O)ccc2OC[C@@H]1C | 0 | -1 | 1.1
CC(C)NC(=O)N1CC(=O)N2[C@H](CO)[C@H](c3ccc(/C=C/c4ccccc4)cc3)[C@@H]2C1 | 4 | -2 | 5.8
CO[C@@H]1CN(C)C(=O)c2cc(NC(=O)c3ccc(F)cc3)ccc2OC[C@H](C)N(C(=O)CC2CC2)C[C@H]1C | 5 | 2 | 2.6
CCC(=O)N1C[C@@H](O)COC[C@@H]2O[C@H](CC(=O)NCc3cc(F)cc(F)c3)CC[C@H]21 | -1 | 3 | -3.7
CCNC(=O)C[C@H]1CC[C@@H]2[C@H](COC[C@H](O)CN2C(=O)Nc2ccc(Cl)c(Cl)c2)O1 | 5 | 6 | -0.4
O=C(Nc1ccc(Cl)c(Cl)c1)N[C@@H]1CC[C@@H](CCNC(=O)c2ccc(F)cc2)O[C@H]1CO | -3 | 2 | -5.4
COc1ccc(-c2ccccc2[C@H]2[C@@H](CO)N(C(=O)c3cccnc3)[C@H]2C#N)cc1 | -4 | -9 | 4.7
Cc1noc(C)c1NC(=O)N(C)C[C@@H]1Oc2c(NC(=O)c3cnccn3)cccc2C(=O)N([C@H](C)CO)C[C@@H]1C | 3 | 2 | 0.5
CCNC(=O)C[C@H]1CC[C@H]2[C@@H](COC[C@@H](O)CN2C(=O)Nc2ccc(C(F)(F)F)cc2)O1 | 6 | -2 | 7.4
C[C@H]1CCCCO[C@@H](CN(C)Cc2ccc(C(=O)Nc3ccccc3N)cc2)[C@@H](C)CN([C@@H](C)CO)C(=O)c2cc(N(C)C)ccc2O1 | 1 | -2 | 2.4

Later entries:
SMILES | DUX4 inh | DUX4 inh difference | DUX4 inh control
CO[C@H]1CN(C)C(=O)c2cc(NS(=O)(=O)c3cn(C)cn3)ccc2OC[C@@H](C)N(C)C[C@@H]1C | 1 | -2 | 2.7
CN(C)c1ccc2c(c1)[C@@H]1C[C@@H](CC(=O)NCCN3CCCCC3)O[C@H](CO)[C@@H]1O2 | 1 | -3 | 4.1
N#C[C@H]1[C@@H](c2ccc(C#CCC3CCCC3)cc2)[C@H](CO)N1C(=O)CN1CCOCC1 | 8 | 4 | 4.3
COc1ccc(S(=O)(=O)N(C)C[C@H]2Oc3c(NC(=O)C4CCOCC4)cccc3C(=O)N([C@@H](C)CO)C[C@@H]2C)cc1 | -3 | -4 | 1.2
O=C(c1cccc(F)c1)N1CCCCN2[C@H](CO)[C@H](c3ccc(/C=C/c4ccccc4)cc3)[C@@H]2C1 | u | x | x
CC(=O)NC[C@@H]1[C@@H](c2ccc(-c3cccnc3)cc2)[C@H](CO)N1C(=O)C1CC1 | -4 | 4 | -7.6
COc1ccc(-c2ccc3c(c2)[C@H]2[C@H](CCN2C(=O)C2CCOCC2)[C@H](CO)N3C)cc1 | -5 | 23 | -28
C[C@@H]1CN([C@H](C)CO)C(=O)CCCn2nncc2CO[C@@H]1CN(C)Cc1cccnc1 | -5 | -2 | -2.5
O=C(C1CCC1)N1CC2(C1)[C@@H](c1ccccc1)[C@@H](CO)N2Cc1cncnc1 | -2 | -10 | 7.5
CO[C@@H]1CC[C@@H]2CCOc3c(C#N)cccc3C(=O)N(C)CCCC(=O)N(C)C[C@@H]1O2 | 1 | 6 | -4.9
O=C(c1ccccc1)N1C[C@H]2[C@@H](c3ccccc31)[C@@H](CO)N2Cc1cocn1 | -2 | 2 | -3.3
COCC(=O)Nc1ccc2c(c1)[C@@H]1C[C@H](CC(=O)O)O[C@@H](CO)[C@@H]1O2 | 12 | 12 | 0.2
CNC[C@@H]1OCCCC[C@@H](C)Oc2ccc(NS(=O)(=O)c3cn(C)cn3)cc2C(=O)N([C@@H](C)CO)C[C@@H]1C | 0 | 0 | -0.6
C[C@@H]1CN([C@@H](C)CO)C(=O)c2cc(Br)cnc2O[C@H]1CN(C)C(=O)Nc1ccc2c(c1)OCO2 | 1 | -1 | 1.8
O=C(c1ccccc1F)N1CC(=O)N2[C@@H](CO)[C@H](c3ccc(-c4cccnc4)cc3)[C@@H]2C1 | 12 | 1 | 11
CN(C)C(=O)[C@H]1N[C@H]2c3ccc(-c4ccc(F)cc4)c(=O)n3C[C@H]2[C@@H]1CO | 3 | -1 | 4.0
O=C(NCC[C@H]1CC[C@H](NS(=O)(=O)c2cccc(Cl)c2)[C@H](CO)O1)c1cnccn1 | 6 | 2 | 4.5
CC(C)NC(=O)N1[C@H](CO)[C@@H](c2ccc(C#CC3CCCCC3)cc2)[C@@H]1C#N | -4 | -4 | 0.3
N#C[C@H]1[C@H](c2ccc(-c3cncnc3)cc2)[C@@H](CO)N1C(=O)CN1CCOCC1 | 2 | -2 | 4.0
CC(C)C(=O)Nc1ccc2c(c1)C(=O)N(C)[C@H]1CC[C@@H](CC(=O)NCc3ccccc3F)O[C@@H]1CO2 | 1 | -1 | 1.9
COc1ccc(CN(C)C[C@H]2Oc3ccc(NC(=O)Nc4ccc5c(c4)OCO5)cc3CC(=O)N([C@@H](C)CO)C[C@@H]2C)cc1 | 2 | -1 | 3.9
CC(C)NC(=O)N(C)C[C@@H]1Oc2ncc(-c3ccccc3F)cc2C(=O)N([C@H](C)CO)C[C@@H]1C | 0 | 3 | -3.3
COc1ccc2c3c([nH]c2c1)[C@H](CO)N(C(=O)CN1CCOCC1)CC31CCN(CC2CCCC2)CC1 | 1 | -15 | 15
O=C(C1CCC1)N1CC2(C1)[C@@H](c1ccccc1)[C@H](CO)N2C(=O)CC1CC1 | 9 | 8 | 1.1
CN1C(=O)c2cc(NC(=O)c3cccc(C(F)(F)F)c3)ccc2OC[C@H]2O[C@@H](CC(=O)NCCN3CCCC3)CC[C@H]21 | -2 | -4 | 2.0

The list continues.
SMILES | DUX4 inh | DUX4 inh difference | DUX4 inh control
COc1ccccc1NC(=O)N[C@H]1C=C[C@H](CC(=O)N[C@H](C)c2ccccc2)O[C@@H]1CO | 2 | 5 | -2.9
CN(C[C@H]1[C@@H](c2ccccc2)[C@H](CO)N1C(=O)C1CC1)C(=O)c1ccccn1 | 1 | 1 | -0.9
CN1c2ccc(-c3ccc(F)cc3)cc2[C@@H]2[C@@H](CCN2C(=O)CC2CC2)[C@@H]1CO | 14 | 13 | 1.3
Cc1ccc(-c2ccc([C@H]3[C@@H](CO)N4C(=O)CN(C(=O)NC(C)C)C[C@@H]34)cc2)cc1 | -3 | 1 | -3.7
COc1ccc(-c2ccc3n(c2=O)C[C@@H]2[C@@H](CO)[C@H](C(=O)Nc4ccccc4)N(C)[C@H]32)cc1 | -1 | 4 | -5.2
COc1ccc(NC(=O)N(C)C[C@H]2Oc3ncc(C#C[C@@H](C)O)cc3C(=O)N([C@H](C)CO)C[C@@H]2C)cc1 | -6 | 0 | -5.6
COCC(=O)N1CC(=O)N2[C@H](CO)[C@@H](c3ccc(-c4ccccc4F)cc3)[C@@H]2C1 | 3 | -7 | 11
CC(C)(C)[S@](=O)N1Cc2cc(C(=O)NCc3ccc4c(c3)OCO4)nc(-c3cccc(-c4ccncc4)c3)c2[C@@H]1CCO | -1 | -4 | 2.9
CO[C@H]1CN(C)C(=O)c2ccc(NS(=O)(=O)c3ccccc3C)cc2OC[C@@H](C)N(C)C[C@H]1C | 2 | 0 | 1.2
CCCNC(=O)N1[C@H](CNC(=O)c2ccc(F)cc2)[C@H](c2ccccc2)[C@@H]1CO | -2 | -3 | 1.4
CN1c2ccc(-c3cccc(F)c3)cc2[C@@H]2[C@@H](CCN2C(=O)Nc2ccccc2F)[C@@H]1CO | 2 | 9 | -7.0
O=C(Nc1ccccc1Cl)N1[C@H](CO)[C@H]2c3ccccc3NC[C@H]21 | 0 | -4 | 3.1
Cc1ccc(-c2ccc3c(c2)O[C@H](CN(C)Cc2ccccn2)[C@H](C)CN([C@H](C)CO)S3(=O)=O)cc1 | 1 | 1 | -0.7
O=C(c1cccnc1)N1CC2(C1)[C@H](c1ccccc1)[C@@H](CO)N2C(=O)c1cccnc1 | 9 | 0 | 8.6
CNC(=O)C[C@@H]1CC[C@@H]2[C@@H](COc3ccc(NC(=O)c4ccccc4OC)cc3C(=O)N2C)O1 | 2 | 3 | -0.4
COc1ccc(S(=O)(=O)Nc2ccc3c(c2)C(=O)N([C@H](C)CO)C[C@H](C)[C@@H](CN(C)C(=O)Nc2c(C)noc2C)OCCCC[C@H](C)O3)cc1 | 1 | 1 | -0.3
CCN1[C@@H]2Cn3c(ccc(-c4cccc(F)c4)c3=O)[C@H]1[C@@H](C(=O)NCCCN(C)C)[C@@H]2CO | 1 | 1 | 0.2
COc1ccccc1S(=O)(=O)N1CC[C@@H]2[C@H](CO)N(C)c3ccc(C#Cc4cccc(F)c4)cc3[C@@H]21 | u | x | x
O=C(CC1CC1)N1[C@@H](CO)[C@H](c2ccccc2)C12CN(Cc1ccncc1)C2 | 0 | 5 | -4.9
O=C(c1cnccn1)N1CC(=O)N2[C@@H](CO)[C@H](c3ccc(C4=CCCCC4)cc3)[C@@H]2C1 | 2 | -5 | 6.4
COC(=O)c1ccc(CN2CC(=O)N3[C@H](CO)[C@H](c4ccc(-c5ccccc5F)cc4)[C@@H]3C2)cc1 | u | x | x
COc1ccc(S(=O)(=O)Nc2ccc3c(c2)CC(=O)N([C@@H](C)CO)C[C@H](C)[C@H](CN(C)Cc2ccc(C(=O)Nc4ccccc4N)cc2)O3)cc1 | 0 | 0 | 0.5
COC(=O)c1ccc(CN2CC(=O)N3[C@@H](CO)[C@H](c4ccc(Br)cc4)[C@@H]3C2)cc1 | 16 | 3 | 13
CC=Cc1ccc2n(c1=O)C[C@H]1[C@H](CO)[C@@H](C(=O)N3CCc4ccccc4C3)N(C(=O)COC)[C@@H]21 (mixture of isomers) | -4 | -5 | 1.2

Bioassay records (PubChem)
